# Vaccinia mCherry – qHTS for Stage-Specific Inhibitors of Vaccinia Orthopoxvirus: mCherry Reporter Primary qHTS; Vaccinia virus mCherry reporter infection, fluorescence; about a quarter of the inactives have no number; Potency, µM (doses to about 36.5 µM), inactives show top-dose activity change, negative = inhibition, most hits filed as inhibitors; hit rate 0.63% among 310,000; AID 720579, 2013; active = well fitted inhibition curve with a large enough effect; inconclusive = small, poorly fitted or top-dose-only effect; inactive = no such curve, though single readings can be large or run the other way; tested in A549 cells; also: nearly all actives have a fitted effect of over 35% in size; inactives centre near -10
# VACV Venus inh – qHTS for Stage-Specific Inhibitors of Vaccinia Orthopoxvirus: Venus Reporter Primary qHTS. AID 720580, 2013. hit rate 0.46% among 330,000. Potency, µM (highest dose often 36.5 µM), for inactives: top-dose activity change, negative = inhibition, hits mostly inhibitors. Vaccinia virus Venus reporter expression, fluorescence; active means well fitted inhibition curve with a large enough effect; inconclusive means small, poorly fitted or top-dose-only effect; inactive means no such curve, though single readings can be large or run the other way; tested in A549 cells; also: nearly all actives have a fitted effect of over 30% in size; inactives centre near -10
# * = called active by the depositor; i = inactive; ? = inconclusive; · = not tested or not shown; & = joins results of further samples; [ ] = another dose, or the depositor's remark. % is scaled to controls: 0 for no effect and ±100 for the full control effect; potency is read from the fitted curve at half-maximal effect.
structure,Vaccinia mCherry,VACV Venus inh
COc1ccccc1NC(=O)COc1cc(C)nc(C(C)C)n1,-12%,-9%
COC(=O)C[C@H]1C[C@@H]2c3cc(NC(=O)NC4CCCC4)ccc3O[C@@H]2[C@@H](CO)O1,-5%,-5%
COc1cc(OC)cc(C(=O)Nc2ccc3oc(-c4ccc(Cl)cc4)nc3c2)c1,-28%,-30%
Cc1nnc(SCc2ccccc2Cl)c2cc3sccc3n12,-10%,-1%
CCSc1ncnc2c1sc1nc3c(cc12)COC(C)(C)C3,-10%,-4%
COc1cccc(NC(=O)c2cc3c(=O)n(C)c4ccccc4c3n2C)c1,2%,0%
CCN1CCN(c2cc(C)c3cc(NC(=O)/C=C/c4ccc(C)cc4)ccc3n2)CC1,-27%,-29%
COc1ccccc1NC(=O)Nc1nnc(C(C)C)s1,-15%,-9%
COC(=O)c1ccc(CN2CCCC(CCC(=O)NCc3ccc(C)o3)C2)cc1 (stereo not given),-10%,5%
COc1cc2[nH]c(=O)n(CCC(=O)NC3CCCC3)c(=O)c2cc1OC,·,-5%
COc1cccc(/C=C/C(=O)c2ccc3c(c2)OCCO3)c1OC,?,?
CS(=O)(=O)c1ccc2nc(NC(=O)CCC(=O)c3cccs3)sc2c1,-23%,-17%
COc1ccc(NC(=O)CC2CC3CCC2C3)cn1 (stereo not given),-2%,6%
Cc1c(C(=O)O)sc(S(=O)(=O)N2CCN(C(=O)CC(C)c3ccccc3)CC2)c1C(=O)O (stereo not given),-16%,-3%
CCCn1c(CCNc2nc(-c3ccc(Cl)c([N+](=O)[O-])c3)cs2)nc2cc(Cl)c(Cl)cc21,-8%,1%
CC(=O)NC1(c2ccccc2)CCN(Cc2nnnn2C(C)(C)C)CC1,-15%,-14%
C[C@H](CO)N1C[C@H](C)[C@@H](CN(C)C(=O)NC2CCCCC2)Oc2ccc(NC(=O)c3ccncc3)cc2C1=O,i,-14%
COc1ccc(-c2nnnn2C)cc1S(=O)(=O)NCc1ccccc1,2%,5%
CCOC(=O)c1cccc(NC(=O)CCc2c(C)nn(-c3ccc(N4CCCCC4)nn3)c2C)c1,-6%,-11%
Nc1nnc(SCC(=O)OCC(=O)c2ccccc2Br)s1,-10%,-4%
Cc1ccc(/C=C2\SC(=S)N(C(Cc3ccccc3)C(=O)O)C2=O)cc1 (stereo not given),-9%,-12%
COc1ccc(CNc2oc(-c3ccccc3)nc2C#N)cc1,7%,-1%
CC(/C=N/NC(=O)c1cccc([N+](=O)[O-])c1)=C\c1ccccc1,i,-8%
COc1ccc(-n2c(SCC(=O)Nc3sc4c(c3C#N)CCCC4)nnc2-c2ccccc2OC)cc1,·,-24%
CCC(C)n1c(O)c(/C=N/Nc2ccccc2)c(=O)[nH]c1=S (stereo not given),?,-9%
CCOc1ccc(Cl)cc1-c1cc(C(=O)NCc2cccc(C(F)(F)F)c2)[nH]n1,-17%,-19%
CN1C[C@@H]2[C@@H]3C(=O)N(C)C(=O)[C@@H]3[C@](C)(C1=O)N2C(=O)c1ccc(C(F)(F)F)cc1,i,6%
COc1cc(NC(=O)c2cccc(COCC(F)(F)C(F)F)c2)cc(OC)c1OC,2%,-10%
Cc1ccc(SC(C)C(=O)Nc2cccnc2)cc1 (stereo not given),-18%,-13%
CCS(=O)(=O)N1CCN(S(=O)(=O)c2ccc3c(c2)OCCO3)CC1,i,0%
Cc1ccc(NC(=O)CSc2nccn2-c2ccccc2)cc1,i,0%
CCC(=O)NC(c1cccs1)c1ccc2cccnc2c1O (stereo not given),?,?
Cc1cc(C)cc(N(CC(=O)N2CCCCCC2)S(C)(=O)=O)c1,i,-6%
CCC1=NN(C(=O)Cc2ccc([N+](=O)[O-])cc2)C(O)(c2ccncc2)C1 (stereo not given),i,0%
Cc1cccc2c(=O)c(Br)c(C)n(Cc3ccccc3)c12,-3%,-7%
CC1=C(C(=O)OC(C)C)C(c2ccc(C)o2)C(C(=O)OC(C)C)=C(C)N1,-9%,-16%
CC(C)CCN1C(=O)CCC1(C)C(=O)NC1CCCCCC1 (stereo not given),-1%,-5%
Cc1ccc(CNC(=O)c2c(-c3ccccc3)noc2C)cc1,i,-2%
CCOc1ccc(CN2CCN(S(=O)(=O)c3ccc(Cl)cc3)CC2)cc1,-28%,-25%
Cc1cc(C(=O)Nc2ccc(Cl)cc2)c2c(C)nn(-c3ccccc3)c2n1,8%,-2%
COc1ccc(S(=O)(=O)N(Cc2cccs2)C2CCCC2)cc1,·,-30%
OC(CSc1ccccc1)CN1CCN(c2ccccc2)CC1 (stereo not given),-20%,-12%
CCC(=O)OCC(=O)C1(OC(=O)CC)[C@H](C)C[C@H]2[C@H]3[C@H]([C@@H](O)C[C@@]21C)[C@@]1(C)C=CC(=O)C=C1C[C@H]3Cl (stereo not given in full),i,-16%
Cc1cnc(C(=O)OCC(=O)Nc2cc(S(=O)(=O)N3CCOCC3)ccc2Cl)cn1,i,-5%
CCOC(=O)C1CCN(C(=O)c2cccc(C(=O)N3CCC(C(=O)OCC)CC3)c2)CC1,-2%,-7%
O=C(N/N=C/c1cccnc1)C(O)(c1ccccc1)c1ccccc1,-17%,-13%
COc1cccc(Cn2c(=O)n(CCc3ccccc3)c(=O)c3c2c2cc(OC)ccc2n3C)c1,7%,-1%
O=C(O)c1ccccc1CC(CCc1ccccc1)C(=O)O (stereo not given),i,6%
CC(NC(=O)c1ccccc1NS(C)(=O)=O)c1ccccc1 (stereo not given),·,-21%
CC(C)C[C@@H](CO)NS(=O)(=O)c1cc(Cl)ccc1F,-28%,-1%

# 11 structures out of the list, arranged by number of heavy atoms, descending.
structure,Vaccinia mCherry,VACV Venus inh
CCC(=O)OCC(=O)C1(OC(=O)CC)[C@H](C)C[C@H]2[C@H]3[C@H]([C@@H](O)C[C@@]21C)[C@@]1(C)C=CC(=O)C=C1C[C@H]3Cl (stereo not given in full),i,-16%
COc1cccc(Cn2c(=O)n(CCc3ccccc3)c(=O)c3c2c2cc(OC)ccc2n3C)c1,7%,-1%
CCOC(=O)C1CCN(C(=O)c2cccc(C(=O)N3CCC(C(=O)OCC)CC3)c2)CC1,-2%,-7%
Cc1cnc(C(=O)OCC(=O)Nc2cc(S(=O)(=O)N3CCOCC3)ccc2Cl)cn1,i,-5%
Cc1cc(C(=O)Nc2ccc(Cl)cc2)c2c(C)nn(-c3ccccc3)c2n1,8%,-2%
CCOc1ccc(CN2CCN(S(=O)(=O)c3ccc(Cl)cc3)CC2)cc1,-28%,-25%
O=C(N/N=C/c1cccnc1)C(O)(c1ccccc1)c1ccccc1,-17%,-13%
Cc1ccc(CNC(=O)c2c(-c3ccccc3)noc2C)cc1,i,-2%
O=C(O)c1ccccc1CC(CCc1ccccc1)C(=O)O (stereo not given),i,6%
Cc1cccc2c(=O)c(Br)c(C)n(Cc3ccccc3)c12,-3%,-7%
CC(C)C[C@@H](CO)NS(=O)(=O)c1cc(Cl)ccc1F,-28%,-1%

# The list goes on:
structure,Vaccinia mCherry,VACV Venus inh
CS(=O)(=O)Nc1ccc2[nH]c(=O)[nH]c2c1,-3%,-3%
CCOC(=O)C(C(=O)c1ccccc1)C1CC(C)NC(=S)N1 (stereo not given),-11%,-5%
O=S1(=O)CCC(NC2CCCC2)C1 (stereo not given),-4%,-8%
COc1ccccc1Cc1c(-c2ccc(C#N)cc2)nc2c(Cl)cc(C(F)(F)F)cn12,-19%,23%
N#Cc1ccc(N2CCc3ccccc3C2)c([N+](=O)[O-])c1,-5%,-9%
CC1=CC(C)(C)Nc2ccc(OC(=O)c3ccco3)cc21,-13%,85%[activator]
Cc1cc(C)c2oc(C(=O)Nc3ccc(S(=O)(=O)N4CCCCCC4)cc3)cc(=O)c2c1,21%,-10%
S=c1[nH]ncn1/N=C/c1ccccc1,·,-10%
Cc1cccc(NS(=O)(=O)c2ccc(C(=O)NCC(c3ccco3)N(C)C)cc2)c1C (stereo not given),-15%,-20%
Cc1ccc(Cc2ccccc2C(=O)O)cc1,-15%,-1%
COc1ccccc1N1CCN(CCCCN2C(=O)c3ccccc3C2=O)CC1,-17%,-9%&-4%
Cc1c(C(=O)N2CC3CCC2C3)sc2ncnc(NCCc3ccccn3)c12 (stereo not given),-13%,-8%
CCCCC/C=C\C/C=C\C/C=C\C/C=C\CCCC(=O)O[C@@H](CO)COC(=O)CCCCCCCCCCCCCCCCC,-17%[3.33 µM],-11%[3.33 µM]
O=C(NCc1ccco1)c1cccc2ccccc12,·,-4%
CCCCC(=O)Nc1sc2c(c1C(N)=O)CCC2,?,-25%
CCNC(=O)CSc1nc2cc(S(=O)(=O)Nc3ccc(OC)cc3)ccc2o1,-22%,-9%
CCc1ccc(C(=O)OCC(=O)N(CCOC)c2c(N)n(Cc3ccccc3)c(=O)[nH]c2=O)cc1,-4%,-16%
CN(C)c1ccc(/C=C/C(=O)c2ccc(O)cc2)cc1[N+](=O)[O-],16µM*,?
COc1ccc(NC(=O)C2Cc3c(-c4cccc(NC(C)=O)c4)ccnc3O2)cn1 (stereo not given),-1%,-20%
CCc1cc(C(=O)N2CCCC(Nc3ccc(F)c(F)c3)C2)n(C)n1 (stereo not given),i,-5%

# Next section, overlapping the part above by 3 compounds.
# Values in the order – Vaccinia mCherry	VACV Venus inh
CN(C)c1ccc(/C=C/C(=O)c2ccc(O)cc2)cc1[N+](=O)[O-]
→ 16µM*	?
COc1ccc(NC(=O)C2Cc3c(-c4cccc(NC(C)=O)c4)ccnc3O2)cn1 (stereo not given)
→ -1%	-20%
CCc1cc(C(=O)N2CCCC(Nc3ccc(F)c(F)c3)C2)n(C)n1 (stereo not given)
→ i	-5%
COC(=O)N/N=C\c1ccc(OC/C=C/c2ccccc2)c(OC)c1
→ ?	-11%
O=C(/C=C/c1ccc([N+](=O)[O-])cc1)NCCSCc1ccco1
→ -25%	-22%
CC(C)NC(C)C(=O)c1ccc2ccccc2c1 (stereo not given)
→ -14%	4%
CCOc1ccccc1NC(c1nnc(-c2ccccc2)o1)c1ccc(F)cc1Cl (stereo not given)
→ 1%	-3%
Cc1cccc(NC(=S)NCc2ccc3c(c2)cc(C)n3C)c1C
→ -22%	-27%
Cc1cc(NC(=S)Nc2ccccc2)ccc1Br
→ -20%	-9%
COc1ccc(CCc2nnc(N)s2)cc1OC
→ i	-9%
CCOC(=O)/C(C#N)=C1\C(=O)N(Cc2ccccc2)c2ccccc21
→ ?	1%
COc1ccc(-c2nc3nc(N)nn3cc2C)cc1F
→ i	-9%
COc1cc(/C=C2/C(C)=C(C#N)c3nc(N)c(C#N)c(C)c32)ccc1OCC(=O)O
→ 25%	16%
COc1ccc(C(O)c2nc(-c3cccc(CO)c3)cs2)cc1 (stereo not given)
→ ?	-5%
O=C(Nc1ccccc1[N+](=O)[O-])OCC=Cc1ccccc1
→ -18%	-12%
CCc1ccc(CNC(=O)c2sc3ncnc(N(C)C4CCCCC4)c3c2C)cc1
→ -4%	-14%
O=C(Nc1ccc(OCc2ccccc2)cc1)c1ccccc1
→ -10%	1%
O=C(NCc1ccccc1F)C1CCN(c2nn3cc(-c4ccc(F)cc4)nc3s2)CC1
→ -10%	0%
N#CCSc1nnc(-c2ccccc2O)n1Cc1ccccc1
→ i	-21%
COc1ccc(CC(=O)Nc2cc(NC(=O)Cc3ccc(OC)c(OC)c3)cc(C(=O)O)c2)cc1OC
→ -15%	-9%
CC(C)Nc1nc(NCCN2CCNC2=O)c2sccc2n1
→ -7%	-16%
O=C(NNC(=S)Nc1ccc(Cl)cc1Cl)c1ccc(N2CCOCC2)c([N+](=O)[O-])c1
→ i	-5%
Cc1ccc(NC(=O)COC(=O)CCNS(=O)(=O)c2ccc(C)c(C)c2)cc1
→ -12%	-19%
CNC(=O)c1cnc2sc(N3CCC(C)CC3)nn2c1=O
→ 4%	3%
Cc1cccc(OCCCC(=O)Nc2ccc(N3CCCCC3)cc2)c1
→ -2%	-5%
CCC(C)(C)NC(=O)C(c1ccc(F)cc1)N(Cc1ccccc1)C(=O)c1cnccn1 (stereo not given)
→ i	-8%
CCCN1CNc2c(c(=O)[nH]c(=S)n2-c2ccccc2Cl)C1
→ -6%	-5%
Cc1cccc(CNC(=O)Cn2c(-c3cccs3)cc3ccccc32)c1
→ -19%	6%
Cc1cccc(C(=O)NCCc2nc3ccccc3n2Cc2ccc(Cl)cc2)c1
→ -18%	-24%
COc1c2c(c(OC)c3ccccc13)[C@@]1(OC2)O[C@H](CCO)C[C@H](O)[C@H]1O
→ -7%	-8%
CCOc1ccc(S(=O)(=O)NCCC(=O)NCC(c2ccccc2OC)N2CCCC2)cc1 (stereo not given)
→ -20%	-21%
COc1ccccc1CNC(=O)c1cc(-c2ccc(F)cc2OC)n[nH]1
→ 15%	-13%
CCC(=O)N(CC(=O)Nc1sc(C)c(C)c1C(N)=O)C1CCCC1
→ -5%	-2%
O=C1N[C@H](Cc2ccccc2)COC(=O)[C@H](Cc2ccc(F)cc2)C/C=C\C[C@H]1CC(=O)N(CCO)Cc1ccccc1
→ ?	?
COc1ccc(NC(=O)Cn2c(SCc3ccc(C)cc3)nc3cccnc32)c(OC)c1
→ -24%	-16%
CCOc1ccc(C(=O)Nc2ccc3nc(N(CC)CC)cc(C)c3c2)cc1
→ 5%	-14%
N/C(=N\OC(=O)Cc1ccccc1)c1cccnc1
→ -11%	-12%
O=C1CCCCCC(=O)[C@H](O)C[C@H](c2ccccc2)O1
→ 3%	5%
COC(=O)c1ccc(Cn2nnc3sc4c(c3c2=O)CCCC4)cc1
→ -8%	-10%
CS(=O)(=O)N1CCN(C(=S)NCc2ccc(Cl)cc2)CC1
→ i	-2%

# Screening data as filed in PubChem BioAssay.
